High-throughput results deposited in PubChem BioAssay by several laboratories.
RN4220 kill: S. aureus RN4220 growth inhibition | hit rate 0.33% among 330,000 | inhibition, % (concentration not given with the values) | OD600, 16 h;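 active = z-score of -3 or lower and OD600 up to 0.18 on both plates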;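 note: plate controls were untreated cells for no effect and reference antibiotic for full effect; stock transfer was 100 nL into about 80 µL; one replicate is shown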
Bead autofluor: flagged as autofluorescent in microsphere protease counterscreen | AID 624483 | hit rate 3.1% among 360,000 | fluorescence intensity (test concentration not listed) | compound autofluorescence counterscreen, microsphere flow cytometry; hits give high values;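 active = at least 3 SD above the mean of all compounds, about 16000 in these data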;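 note: 100 nL of 1 mM stock went into each well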
BJeLR lethal: kills HRASV12-expressing BJeLR cells. BJeLR (HRASV12) viability, CellTiter-Glo ATP luminescence, 48 h; reference of the scale not given here. inhibition, % (concentration not given with the values). hit rate 0.17% among 300,000. AID 1554;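 active = replicate mean above 50%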;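 note: 50 nL library stock added to about 25 µL; numbers are from one replicate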
PrP UTR inh: inhibition of PrP 5' UTR reporter expression; hit rate 0.35% among 340,000; cell-based PrP 5' UTR mRNA reporter, plate reader; AID 488862; inhibition, % (test concentration not listed);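 active = every replicate at 50% or more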;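 note: 0 = median of the neutral control wells; tested in H4 reporter cells; numbers are from one replicate; inactives centre near -14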
Mtb hypoxia inh: reduces hypoxia-regulated biosensor signal in M. tuberculosis | M. tuberculosis hypoxia-regulated fluorescent reporter, fluorescence | fluorescence inhibition, % (test concentration not listed) | hit rate 0.1% among 300,000;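 active = 35 to 45% if threefold the growth effect, above 45% if 1.5-fold the growth effect; inactive = the rest, general growth blockers included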;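 note: wells of about 50 µL received 100 nL stock; 0% = vehicle wells and 100% = reference inhibitor wells; whole bacteria with a GFP reporter of the hypoxia response; strong numbers were not always called active; many hits fall short of the cut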
ugtP null kill: growth inhibition of S. aureus ugtP deletion strain; S. aureus RN4220 ugtP deletion, OD600 growth, 16 h; some inactives read as strong as hits; growth inhibition, % (concentration not given with the values); hit rate 0.54% among 330,000; AID 1259309;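 active = z-score under -3 and OD600 up to 0.15 on both plates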;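 note: plate controls were untreated wells for no effect and antibiotic for full effect; wells of about 80 µL received 100 nL stock; the first replicate is given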
Mtb hypoxia inh growth: recorded beside Mtb hypoxia inh, whose call it bears; growth inhibition, %; measured here: M. tuberculosis growth (absorbance);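 0% = vehicle and 100% = reference antibiotic; read after six days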
Numbers without * were called inactive; . = no result given; & = joins results of further samples.

SMILES | RN4220 kill | Bead autofluor | BJeLR lethal | PrP UTR inh | Mtb hypoxia inh | Mtb hypoxia inh growth | ugtP null kill
CC1(C)OC2OC(C(O)CON3C(=O)c4ccccc4C3=O)C(O)C2O1 (stereo not drawn) | 0.9 | . | . | . | 6 | -2 | 5
CCOc1ccc(OCC)c(NC(=O)CN2CCN(CC(=O)NC(C)C)CC2)c1 | -0.8 | 3877 | -4 | -9 | 3 | -2 | 0
COc1ccc(-c2nc(CN3CCC(C(=O)NCC4CCCO4)CC3)c(C)o2)cc1OC (stereo not drawn) | 4.7 | 5034 | 6 | -5 | 14 | 1 | -7
O=C(O)CCCC(=O)Nc1ccc(C(=O)NCc2cccnc2)cc1 | 0.3 | 2804 | 6 | -22 | . | . | 0
COc1cc(/C=N/NC(=O)c2cccc([N+](=O)[O-])c2)ccc1OCc1ccccc1 | . | 11587 | 2 | -27 | . | . | .
O=C(COC(=O)CCc1ccc(S(=O)(=O)N2CCOCC2)cc1)NC(=O)NC1CCCCC1 | 0.9 | 4104 | 4 | 9 | 13 | -8 | 0
COc1ccc(CN2CCNC(=O)C2CC(=O)NC2Cc3ccccc3C2)c(OC)c1 (stereo not drawn) | 5.2 | 2510 | -1 | -31 | 0 | 1 | 3
CCN(CC(=O)Nc1ccccc1C(F)(F)F)C(=O)c1ccc(N2CCCC2=O)cc1 | 1.5 | . | . | -20 | 4 | 4 | 2
COc1cc(C)ccc1OC(C)C(=O)Nc1ccc(N2CCCCC2)cc1 (stereo not drawn) | 15 | 2725 | . | -13 | 8 | 5 | 14
COc1ccc2nc(Nc3nc4cc5c(cc4s3)OCO5)sc2c1 | 0.6 | 2101 | 1 | -22 | 16 | 8 | 20
CCOC(=O)C1CCCN(C(=O)Cn2nc(C)n3nc(-c4ccccc4)cc3c2=O)C1 (stereo not drawn) | 1.5 | 5411 | 0 | -7 | -7 | 1 | 3
CC1(C)Cc2ccccc2-c2nc(-c3ccccc3)oc(=O)c21 | 5.9 | 2759 | 5 | 1 | . | . | 58
C=CCn1c(=N)n(CC(O)c2ccco2)c2ccccc21 (stereo not drawn) | 3.3 | 2637 | 2 | -1 | . | . | 11
c1ccc(Cn2ccnc2)cc1 | 6.7 | 5912 | -3 | 7 | 9 | -1 | -2
O=C(Nc1cc(C(F)(F)F)ccc1F)C1CCCC1 | 4.4 | 13813 | -10 | -9 | 5 | 4 | -3
CCCn1nnnc1COc1ccc(C(N)=O)cc1 | 4.7 | 3479 | -13 | -11 | 2 | 14 | 15
CCCCOc1cccc(C(=O)N(Cc2ccccc2)C2CCS(=O)(=O)C2)c1 (stereo not drawn) | -1.9 | 5693 | 17 | -15 | 4 | -9 | 12
O=C(Nc1ccc(Cl)cc1)c1cccc(OC(=S)N2CCOCC2)c1 | 3.8 | 6943 | 19 | -18 | 11 | 1 | 4
COc1ccc(CCC(=O)NC2CCCCC2)cc1 | 2.0 | 5654 | 1 | -18 | 8 | -10 | 9
COc1ccc(Oc2nc(Oc3ccc(OC)cc3)nc(Oc3ccc(OC)cc3)n2)cc1 | 4.9 | 5462 | -13 | -18 | 2 | 5 | 0
COc1ccc(OC)c(NC(=O)c2nnn(Cc3ccc(Br)cc3F)c2N)c1 | -5.6 | 4552 | -13 | 7 | . | . | 6
Cc1nc2ccccc2c(=O)n1NC(=O)C1CC1 | 2.9 | 4327 | 11 | -15 | 17 | 4 | 0
COc1ccc(-n2nc(C(=O)NCc3ccco3)c3c4ccccc4n(C)c3c2=O)cc1Cl | 2.1 | 9209 | -13 | -12 | -5 | 3 | 1
CC(C)[C@@H](C(=O)NCC1CCC(C(=O)O)CC1)n1nnc2ccccc2c1=O (stereo partly drawn) | 0.2 | 6720 | 0 | -19 | 5 | 3 | 9
COC(=O)[C@]1(Cc2ccccc2)N[C@H](CN(C)C(=O)c2ccc(F)cc2)[C@@H]2C(=O)N(C)C(=O)[C@@H]21 | 2.9 | 2928 | . | 12 | -1 | 1 | 9

In the list so far, these contain a CF3 group.
SMILES | RN4220 kill | Bead autofluor | BJeLR lethal | PrP UTR inh | Mtb hypoxia inh | Mtb hypoxia inh growth | ugtP null kill
CCN(CC(=O)Nc1ccccc1C(F)(F)F)C(=O)c1ccc(N2CCCC2=O)cc1 | 1.5 | . | . | -20 | 4 | 4 | 2
O=C(Nc1cc(C(F)(F)F)ccc1F)C1CCCC1 | 4.4 | 13813 | -10 | -9 | 5 | 4 | -3

(cont.)
SMILES | RN4220 kill | Bead autofluor | BJeLR lethal | PrP UTR inh | Mtb hypoxia inh | Mtb hypoxia inh growth | ugtP null kill
COC(=O)C(CC(C)C)N(Cc1ccccc1)S(=O)(=O)N(Cc1ccccc1)C(CC(C)C)C(=O)OC (stereo not drawn) | -2.4&-8.7 | . | . | . | 8&7 | 8&8 | -3&1
CCc1cccc(CC)c1NC(=S)NCCc1c(C)[nH]c2ccccc12 | 8.3 | 4559 | -9 | 8 | 4 | 7 | 16
COc1cc(C(=O)Nc2ccccc2N2CCCCC2)cc(OC)c1OC | 0.7 | 3888 | -7 | -27 | 15 | 4 | 12
Cc1cc(-c2csc(NC(=O)c3cccc(S(=O)(=O)N(C)C)c3)n2)c(C)n1-c1ccccc1 | 11 | 3451 | -4 | -18 | 11 | 0 | -1
C/C=C/c1ccc(OCCn2cncn2)c(OC)c1 | 2.8 | 4157 | . | -21 | . | . | 4
CCOc1ccccc1C(=O)Nc1cccc(-c2nnc(-c3ccccc3)o2)c1 | 21 | 9012 | -5 | -24 | 8 | 8 | 5
Cc1c(NC(=O)c2cccnc2Cl)c(=O)n(-c2ccccc2)n1C | -1.3 | 3598 | 1 | -13 | 4 | 3 | 19
COc1ccccc1Nc1cc(C(=O)NCc2cccnc2)c2ccccc2n1 | 5.4 | 4836 | 14 | 0 | -3 | -4 | 19
CCN(CC)CCNC(=O)c1cn(CCOC)c(=O)c2c1c1ccccc1n2C | 4.8 | 3584 | 6 | -21 | 5 | 1 | 5
Cc1ccc(NC(=O)c2ccc(NS(=O)(=O)c3cccc4cccnc34)cc2)cc1 | 8.1 | 4067 | 14 | -9 | 3 | 0 | 10
CCOC(=O)c1[nH]c2ccccc2c1NC(=O)CN1CCCCC1 | 2.8 | 4866 | 7 | -24 | . | . | 1
Cc1cc(C)nc(SCC(=O)Nc2ccc3c(c2)OCO3)n1 | 4.3 | 6327 | 2 | -22 | -1 | 0 | 9
O=C(Cn1nnc2c(cnn2-c2ccc(F)cc2)c1=O)OC1CCCCC1 | 11 | 4850 | 3 | 3 | . | . | -7
COc1cccc(C=Nc2ccccc2C(=O)Nc2nccs2)c1OC | 1.9 | 3502 | 6 | -23 | . | . | -3
Brc1ccccc1C1N=C(c2ccccc2)NO1 (stereo not drawn) | 10 | 3669 | -4 | -41 | 13 | 15 | 1
Cc1ccc(-n2nc3cc(C)c(NC(=S)NC(=O)/C=C/c4ccco4)cc3n2)cc1 | -1.1 | 2325 | -3 | -26 | 1 | -4 | 28
CCCCOc1ccccc1NC(=O)CC1SC(=NCC)N(CC)C1=O (stereo not drawn) | -5.1 | 3424 | -1 | -21 | 6 | 16 | -7
O=C(Nc1ccc(F)cc1)c1ccc2c(c1)S(=O)(=O)N=C1CCCCCN12 | 1.3 | 3871 | . | -4 | 3 | 4 | 3
COc1ccccc1CNC(=O)C(C)Oc1ccccc1 (stereo not drawn) | 7.0 | 4051 | -5 | -1 | 13 | 7 | 8
COC(=O)CCC(=O)c1oc2ccccc2c1NC(=O)CCCN1C(=O)c2ccccc2C1=O | -2.4 | 4550 | 7 | -3 | 2 | 12 | -2
O=C(NC1CCCc2ccccc21)C1CCC(CNS(=O)(=O)c2cccc3nsnc23)CC1 (stereo not drawn) | -7.6 | 4433 | 6 | -26 | 8 | 4 | 17
CCCCCCCc1ccc(-c2ccc(O)cc2)nc1 | 11 | 3807 | -1 | -51 | 0 | 0 | 45
COc1ccc(C(=O)NC2CCN(C(=S)Nc3cccc(C)c3)CC2)cc1 | -0.3 | 8867 | 3 | -3 | 1 | 9 | 5
Cc1cccc2c1cnn2C(=O)Nc1ccc(Br)cc1F | 1.1 | 3688 | -13 | -71 | -3 | -7 | 6
COc1ccc(/C=C2\CCCC3C2=NN(C(=O)c2scnc2C)C3c2ccc(OC)cc2)cc1 (stereo not drawn) | 3.3 | 22840* | -10 | -19 | 0 | 5 | -2
New compounds follow.
SMILES | RN4220 kill | Bead autofluor | BJeLR lethal | PrP UTR inh | Mtb hypoxia inh | Mtb hypoxia inh growth | ugtP null kill
Fc1ccc(F)c(CNc2ncnc3cc(Cl)ccc23)c1 | -8.6 | 3794 | 1 | -21 | 4 | 2 | -1
CC(C)Cc1nnc(NC(=O)CSc2nc(-c3ccccc3)cc(=O)[nH]2)s1 | 4.2 | 2103 | 8 | -11 | 7 | 9 | 0
N#CCCC12CCCCC1=Nc1ccccc12 (stereo not drawn) | 2.6 | 9309 | 22 | -23 | 3 | 1 | 4
CCOCCn1c(CN2CCN(c3ccccc3)CC2)nc2c1c(=O)n(C)c(=O)n2C | -2.5 | 4391 | 9 | -9 | . | . | 13
COCCNC(=O)COC(=O)/C=C/c1cnc2ccccc2n1 | 3.8 | 17342* | 4 | -22 | 3 | 4 | 10
Cc1cc(C)cc(NC(=O)NN2C(C)CCCC2C)c1 (stereo not drawn) | 7.2 | 4533 | -3 | -7 | 16 | 8 | 4
COc1cccc(NC(=O)Nc2cc(C)ccc2F)c1 | 6.7 | 9209 | 4 | -31 | 8 | 6 | -4
CCN(CC)c1nc2ccccc2nc1C(C#N)C(=O)NCCc1ccccc1 (stereo not drawn) | -0.8 | 9110 | -5 | -28 | 4 | -3 | -5
Cc1cccc(NC(=O)CN2C(=O)N/C(=C/c3cc(C)n(C)c3C)C2=O)c1 | 0.8 | 5114 | . | -10 | 4 | 12 | 0
CCCOC(=O)c1ccc(NC(=O)CC(C)(C)C)cc1 | -6.5 | 2013 | -5 | -116 | 7 | 7 | 0
COC(=O)C1=C[C@@H](C(=O)OC)[C@@H]2C3=C(C(=O)[C@@]2(C)NC(=O)c2ccccc2)[C@H](C)C(C(=O)OC)=C(C(=O)OC)[C@@H]3C1 | . | 3921 | -4 | -21 | . | . | .
COCCNC(=S)N1CCN(Cc2ccc3c(c2)OCO3)CC1 | 1.1 | 3320 | -9 | -20 | 10 | 1 | 11
COc1cccc(/C=C2/C(=O)NN(c3ccc(F)cc3)C2=O)c1 | 3.5 | 3822 | -1 | -10 | 3 | -2 | 8
COc1cccc(C=NNC(=O)c2cc(-c3cccn3C)n[nH]2)c1O | 5.3 | . | . | . | 6 | 0 | -7
O=C(c1sc2cccc(Cl)c2c1Cl)N1CCN(CCc2ccccn2)CC1 | -5.0 | 5841 | -9 | -15 | 8 | 5 | -1

Full records, looked up by structure. Screens in order: RN4220 kill, Bead autofluor, BJeLR lethal, PrP UTR inh, Mtb hypoxia inh, Mtb hypoxia inh growth, ugtP null kill
Cc1cccc(NC(=O)CN2C(=O)N/C(=C/c3cc(C)n(C)c3C)C2=O)c1 is entered as 0.8, 5114, ., -10, 4, 12, 0
Cc1cc(C)cc(NC(=O)NN2C(C)CCCC2C)c1 (stereo not drawn) is entered as 7.2, 4533, -3, -7, 16, 8, 4
CC(C)Cc1nnc(NC(=O)CSc2nc(-c3ccccc3)cc(=O)[nH]2)s1 is entered as 4.2, 2103, 8, -11, 7, 9, 0
O=C(c1sc2cccc(Cl)c2c1Cl)N1CCN(CCc2ccccn2)CC1 is entered as -5.0, 5841, -9, -15, 8, 5, -1
